# gsp antag: gsp mutant antagonism | gsp-mutant cells, cAMP HTRF, 30 min; control for the full effect not named in the record | Potency, µM (doses to about 76.9 µM), for inactives: at the top dose activity change, negative = inhibition, most hits filed as inhibitors | actives 0.4% (n = 340,000) | AID 624288; active = falling curve of any shape with a large fitted effect; inconclusive = falling curve, mostly with a smaller effect; inactive = flat or rising curve; cell line not stated here;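 also: intracellular cAMP measured with PDE inhibitor Ro 20-1724 present during compound exposure; potency is read from the fitted curve at half-maximal effect; % is scaled to controls: 0 for no effect and ±100 for the full control effect; nearly all actives have a fitted effect of over 65% in size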
#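 HTRF cAMP read-out (cAMP-d2 plus anti-cAMP antibody-K in lysis buffer, 30 min RT). Before lysis, cells are exposed to compounds with […] for 30 min at 37C in DPBS containing Ca/Mg, BSA and Tween 20.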
# D2 PAM: positive allosteric modulators of human D2 dopamine receptor | DiscoveRx D2 beta-arrestin cells, luminescence, 90 min; 100% = 57 uM dopamine signal | potentiation, % (test concentration not listed) | actives 0.23% (n = 360,000) | AID 624464 | P14416; active = potentiation of 50% or more; inconclusive = 30% to 50%; inactive = 30% or less;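 also: compound concentration not given in the record; tested on top of an EC20 dose of dopamine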
# Target sequence (P14416 whole entry, looked up): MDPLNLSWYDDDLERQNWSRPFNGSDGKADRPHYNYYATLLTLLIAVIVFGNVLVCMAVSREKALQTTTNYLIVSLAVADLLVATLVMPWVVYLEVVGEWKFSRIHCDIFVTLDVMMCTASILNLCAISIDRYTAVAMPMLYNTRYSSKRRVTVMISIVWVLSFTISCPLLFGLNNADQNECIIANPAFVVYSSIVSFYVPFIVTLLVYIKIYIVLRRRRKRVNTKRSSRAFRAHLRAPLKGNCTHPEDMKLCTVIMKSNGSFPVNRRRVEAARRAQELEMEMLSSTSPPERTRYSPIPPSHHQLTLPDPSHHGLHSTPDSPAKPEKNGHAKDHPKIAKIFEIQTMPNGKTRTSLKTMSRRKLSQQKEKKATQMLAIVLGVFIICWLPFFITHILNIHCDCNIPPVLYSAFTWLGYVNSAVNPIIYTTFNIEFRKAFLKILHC
#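 PathHunter beta-arrestin assay in DiscoveRx D2 cells. Compounds were added with an EC20 of dopamine (50 nM final) for 90 min at 37 deg C. Luminescence was read 1 h after detection reagent, with 57 uM dopamine as the EC100 control.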
# D2 agonist: human D2 receptor agonism in beta-arrestin assay; AID 624465; DiscoveRx PathHunter D2 beta-arrestin, luminescence, 90 min; 100% = 57 uM dopamine signal; activation, % (concentration not given with the values); actives 0.084% (n = 360,000); in the data active = activation above about 40%; inconclusive = about 15% to 40%; inactive = below about 15%; also: compound concentration not given in the record; the text of the record calls up to 30% inactive
#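 DiscoveRx PathHunter D2 beta-arrestin cells (2,100/well) attached overnight, then compound-stimulated 90 min at 37 C in HBSS/10 mM HEPES/0.1% Tween-20 buffer; beta-galactosidase complementation read by luminescence after 1 h at ambient temperature. Dopamine 57 uM final (EC100) as control.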
# gsp ag: gsp mutant agonism; gsp mutant cells, cAMP HTRF, 30 min; control for the full effect not named in the record; Potency, µM (titrated, usually from 76.9 µM), for the others: at the highest dose activation (cAMP increase), hits mostly activators; actives 0.13% (n = 340,000); active = well fitted activation curve with a large enough effect; inconclusive = small, poorly fitted or top-dose-only effect, or another doubt; inactive = no such curve, though single readings can be large or run the other way; cell line not stated here;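 also: phosphodiesterase inhibitor Ro 20-1724 added with compounds to block cAMP breakdown; potency is read from the fitted curve at half-maximal effect; nearly all actives have a fitted effect of over 60% in size; about a fifth of the inactives were tested at one dose only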
#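 Cells in DMEM/10% FBS with G418 were pretreated with compounds in DMSO plus […] (300 uM stock) for 30 min at 37C. cAMP was measured by HTRF (cAMP-d2 plus anti-cAMP antibody-K) after 30 min at room temperature.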
# Six1-Eya2 inh: blocks human Six1 binding to Eya2; Q15475+O00167; AlphaScreen GST-Six1/His-Eya2 binding, biochemical; hits give low values; control for the full effect not named in the record; activity change, % (concentration not given with the values); actives 0.56% (n = 360,000); AID 651725; in the data active = activity change below about -65%; inconclusive = about -30% to -65%; inactive = above about -30%; also: % is scaled to controls: 0 for no effect and ±100 for the full control effect
#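 AlphaScreen with GST-Six1 and His-Eya2 (5X mix: 250 nM and 500 nM), glutathione donor and nickel acceptor beads; buffer 50 mM Tris pH 8.0, 300 mM NaCl, 1 mM TCEP; 1 h at 37 C in the dark.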
# CtBP-E1A inh: CtBP/E1A binding inhibition. AlphaScreen GST-E1A/His-CtBP binding, 1536-well; hits give low values; control for the full effect not named in the record. activity change, % (test concentration not listed). actives 0.49% (n = 340,000); in the data active means activity change below about -65%; inconclusive means about -30% to -65%; inactive means above about -30%; also: % is scaled to controls: 0 for no effect and ±100 for the full control effect; compound concentration not given in the record
#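 Protein mix (5X: 125 nM each GST-E1A, His-CtBP) was incubated with pinned compound 2 h at 37 deg C in dark, in 50 mM Tris pH 8.0 buffer with 300 mM NaCl. Glutathione donor and nickel acceptor beads followed; AlphaScreen signal read after 1 h.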
# * = called active by the depositor; u = inconclusive; x = no result given; [ ] = another dose, or the depositor's remark.
SMILES,gsp antag,D2 PAM,D2 agonist,gsp ag,Six1-Eya2 inh,CtBP-E1A inh
NC(=S)c1cc2ccc(O)cc2oc1=O,-2%,-23,-14,2.5µM*,-12,5
O=C1OC(c2ccccc2)(c2cc(Br)ccc2O)c2ccccc21 (centres undefined),-25%,12,12,-9%,-14,-2
O=C(Nc1cccc(Cl)c1)N1CCN(c2ncccn2)CC1,-2%,-14,-1.0,-4%,5,-2
Cc1ccc(S(=O)(=O)NC(Cc2ccccc2)C(=O)O)cc1 (centres undefined),-10%,-3,-12,24%[15.4 µM],5,9
COc1cccc(C(C(=O)NC(C)(C)C)N(Cc2ccc(C)cc2)C(=O)CCC(=O)Nc2cc(C)on2)c1OC (centres undefined),x,-3,-0.6,0%[15.4 µM],0,0
CCCOc1ccc(CC(=O)NCC2(c3ccccc3)CCOCC2)cc1OC,-11%,-13,-0.5,0%,8,-4
COc1ccccc1CNC(=O)CCNC(=O)N1CC(=O)Nc2ccccc21,0%,-13,-0.7,-5%,0,-1
CC(Oc1ccccc1F)c1nnc(SCC(=O)Nc2ccc(N3CCOCC3)cc2)o1 (centres undefined),-7%,-12,0.0,-19%,-4,5
CCN(CC)CCOC(=O)c1ccc(N/C=C(/C#N)c2nc(-c3cccc(OC)c3)cs2)cc1,10%,-2,-2.4,-7%[15.4 µM],-2,-8
Cc1cc(NC(=O)C2CCCCC2)ccc1NC(=O)c1ccccc1Cl,10%,0,-0.9,0%,-1,7
O=C(CN(c1ccccc1)S(=O)(=O)c1ccccc1)N1CCN(Cc2ccc3c(c2)OCO3)CC1,-17%,-23,-3.2,0%,3,0
COCCCNC(=O)CS(=O)Cc1nc(-c2ccccc2C)oc1C (centres undefined),10%,0,-3.4,5%,0,8
O=c1cc(-c2ccccc2)nc(Cc2c(Cl)cccc2Cl)[nH]1,11%,-8,-3.7,-62%[inhibitor],0,8
CN(C)C(=O)C(=O)c1cccn1-c1cccc(Cl)c1C#N,6%,-8,-1.5,-16%,10,x
COc1ccc(N(C(=O)CNC(=O)c2ccco2)C(C(=O)NCC2CCCO2)c2ccccc2)c(OC)c1 (centres undefined),9%,-2,2.0,u,8,-21
Cc1[nH]c(=S)c(C#N)c(C)c1Cc1ccc(Cl)cc1Cl,-6%,-3,2.7,-77%[inhibitor],-5,x
CCOC(=O)c1cc(N)cc([N+](=O)[O-])c1,14%,2,-12,0%[15.4 µM],-2,2
CCOC(=O)CSCC(=O)N1N=C(c2cccs2)CC1c1ccc(F)cc1 (centres undefined),-26%,-7,1.0,-27%,-3,10
CC(C)n1ncc2c(C(=O)Nc3ccccc3SCC(N)=O)cc(C3CC3)nc21,x,-3,8.7,10%,1,-3
CC(=O)Nc1cc2ccccc2oc1=O,11%,-13,-0.7,5%[15.4 µM],8,3
CCO[C@H]1OC(C(N)=O)=C[C@@H](C2CCCCC2)[C@@H]1CCCO,11%,-6,-5.2,-1%,4,7
Nc1nnc(N)c2ccccc12,x,-10,-1.5,13%[15.4 µM],-2,28
CC(C)C(Cl)=NOC(=O)Nc1ccc(F)cc1,15%,-2,-4.8,-74%[inhibitor],1,9
O=C(O)c1ccc(S(=O)(=O)NCc2cccnc2)cc1,19%,-5,3.3,1%[15.4 µM],8,2
O=C(CCSc1ccccc1)Nc1ccccc1Br,7%,-8,-3.3,31%,16,5
# (next part)
SMILES,gsp antag,D2 PAM,D2 agonist,gsp ag,Six1-Eya2 inh,CtBP-E1A inh
O=C(C1=C(O)C(=O)N(CCc2ccccc2)C1c1cccnc1)c1ccco1 (centres undefined),2%,-13,-1.8,u,2,1
Cc1cc(C)n2nc(C(=O)NCc3ccccc3)nc2n1,12%,-6,-2.9,-57%[inhibitor],-2,4
COc1ccc(-n2sc3ccccc3c2=O)cc1,x,x,-3.3,-25%,-2,-3
Cc1nn(-c2ccccc2)c(Cl)c1/C=N/NC(=O)c1cccnc1,4%,-19,0.6,9%,-20,-24
O=C(NC(Cc1c[nH]c2ccccc12)C(=O)N1CCOCC1)c1cccs1 (centres undefined),-7%,-4,-4.5,-6%,6,-10
Cc1ccc(-c2cc(Cc3ccc(N(C)C)cc3)c(=O)[nH]n2)cc1,-1%,-10,-4.7,-5%,-23,-28
COc1ccc(-c2ccc(CN3C(CC(C)C)C(=O)N(Cc4cn(CC5CCCCC5)nn4)CCS3(=O)=O)cc2)cc1 (centres undefined),x,-2,-2.0,u,-7,-1
COC(=O)[C@H](CC(C)C)NC(=O)N1CCC(C)CC1,5%,1,-3.0,0%[15.4 µM],9,12
CC(OC(=O)CNC(=O)c1ccc(F)cc1)C(=O)Nc1ccc(S(=O)(=O)N2CCOCC2)cc1 (centres undefined),6%,-1,8.5,0%,5,4
CC1(C(=O)O)CCCN(C(=O)c2cc3ccccc3s2)C1 (centres undefined),x,1,-2.8,x,16,10
Cc1cccc(C(=O)Nc2ccc3c(c2)ncn3C)c1,4%,-1,-4.7,-29%[15.4 µM],8,-5
COC(=O)N1[C@H](Cc2ccccc2)C=C[C@]1(C)C(=O)NCc1ccccn1,0%,-4,-0.8,x,-2,-2
Cc1ccc2sc(C)[n+](CCCS(=O)(=O)[O-])c2c1,7%,-22,-2.5,16%[15.4 µM],-2,-5
Cc1ccc(NC(=O)CS(=O)CC(=O)N(C2CCCC2)C(C)C(=O)NC2CCCCC2)cc1 (centres undefined),10%,-27,-1.5,-28%,0,1
Cc1cc(C)c(S(=O)(=O)c2c(C)cccc2C)c(OCC(C)C)n1,u,-12,-3.3,-17%,10,14
CCCCn1nnc(NC(=O)CC23CC4CC(CC(C4)C2)C3)n1,5%,-10,-9.3,15%,-2,6
CC1(CCc2ccccc2)NC(=O)N(CC(=O)N2CC(=O)Nc3ccccc32)C1=O (centres undefined),3%,-5,-4.1,-19%,1,5
CCC(=O)NC(=S)Nc1ccc(NC(=O)c2ccco2)cc1,-16%,-2,-0.8,-12%,4,3
NC(=O)c1cc(C(=O)Cc2ccccc2)c[nH]1,7%,-6,-3.0,1%[15.4 µM],6,0
Cc1cc(C)c(C)c(S(=O)(=O)NNC(=O)c2cccc(S(=O)(=O)N3CCOCC3)c2)c1C,0%,-8,2.1,0%,-5,-3
COC(=O)CCCN1C(=O)c2cccc3cccc(c23)C1=O,3%,3,4.9,-14%[15.4 µM],-10,8
Cn1c(C(C(=O)NCC2CCCO2)N(CCc2ccccc2)C(=O)Cn2nnc3ccccc32)nc2ccccc21 (centres undefined),1%,-11,-2.9,-54%,-3,0
O=C1COc2ccc(C(=O)COC(=O)Cc3c(F)cccc3Cl)cc2N1,-4%,-6,-2.7,-23%,8,-13
Cc1ccccc1/C=C/C1=NCCN1,-1%,-1,-6.8,x,7,9
COc1cc(C(=O)NCC(=O)N/N=C/c2ccccn2)cc(OC)c1OC,-3%,-14,-2.4,4%[15.4 µM],-5,-19

# Given with each value named: entries from further up.
Cc1cc(NC(=O)C2CCCCC2)ccc1NC(=O)c1ccccc1Cl
  gsp antag = 10%
  D2 PAM = 0
  D2 agonist = -0.9
  gsp ag = 0%
  Six1-Eya2 inh = -1
  CtBP-E1A inh = 7
O=C(CN(c1ccccc1)S(=O)(=O)c1ccccc1)N1CCN(Cc2ccc3c(c2)OCO3)CC1
  gsp antag = -17%
  D2 PAM = -23
  D2 agonist = -3.2
  gsp ag = 0%
  Six1-Eya2 inh = 3
  CtBP-E1A inh = 0
COCCCNC(=O)CS(=O)Cc1nc(-c2ccccc2C)oc1C (centres undefined)
  gsp antag = 10%
  D2 PAM = 0
  D2 agonist = -3.4
  gsp ag = 5%
  Six1-Eya2 inh = 0
  CtBP-E1A inh = 8
O=c1cc(-c2ccccc2)nc(Cc2c(Cl)cccc2Cl)[nH]1
  gsp antag = 11%
  D2 PAM = -8
  D2 agonist = -3.7
  gsp ag = -62%[inhibitor]
  Six1-Eya2 inh = 0
  CtBP-E1A inh = 8

# The results go on.
SMILES,gsp antag,D2 PAM,D2 agonist,gsp ag,Six1-Eya2 inh,CtBP-E1A inh
O=C(CSc1nnc(CNC(=O)c2ccccc2)o1)c1ccccc1,10%,-24,-5.7,-12%[15.4 µM],12,-6
CC1(C)CC(=O)C(C=NCCc2ccc(S(N)(=O)=O)cc2)=C(O)C1,5%,-4,-1.7,14%,4,1
CC(C)OCCCNC(=O)CN1C(=O)CSc2ccc(S(=O)(=O)N3CCOCC3)cc21,x,-3,-9.4,9%,6,-2
COc1ccc(CNC[C@H]2O[C@@H](n3ccc(=O)[nH]c3=O)[C@H](O)[C@@H]2O)cc1,x,-4,-4.2,x,4,13
CN1CCN(c2nc3ccccc3nc2C(C#N)S(=O)(=O)c2ccccc2)CC1 (centres undefined),-4%,-10,0.1,-3%,1,x
COCCC(=O)N1CCC(Oc2ccc(C(=O)NCCC3=CCCCC3)cc2)CC1,0%,-3,8.0,u,3,1
O=C(CNC(=O)c1ccc([N+](=O)[O-])cc1)c1ccccc1,1%,15,3.4,7%,5,7
CC1(c2nnc(-c3ccccc3)o2)CC(c2ccncc2)=NO1 (centres undefined),10%,-2,-1.4,-14%,0,2
COCCn1nnnc1C(c1ccc(O)c(OC)c1)N1CCc2ccccc2C1 (centres undefined),10%,-1,1.9,0%,-2,4
Cc1nn(-c2nc(-c3ccco3)cc(C(F)(F)F)n2)c(C)c1Br,0%,-7,-2.3,-7%,3,4
C=CCC1NCCc2c(Br)cccc21 (centres undefined),13%,-11,3.6,19%,15,5
CCN(C(=O)COc1cc(=O)n(CC)c2ccccc12)c1cccc(Cl)c1,-37%,-5,-1.7,20%,-2,-3
CCC(C)NC(=O)C1CCC(CNS(=O)(=O)c2ccccc2)CC1 (centres undefined),2%,-7,-3.4,-2%,0,-3
Cc1ccc(CNC(=O)c2ccc(CNc3c(N4CCCC4)c(=O)c3=O)cc2)cc1,-2%,-7,-1.1,-13%,-2,0
COc1cc(C(=O)COC(=O)Cc2cnc3sccn23)cc(OC)c1OC,11%,-19,0.5,4%,0,-2
CCOc1ccc(N(CC)S(=O)(=O)c2ccc3c(c2)oc(=O)n3C)cc1,-10%,-6,2.1,-4%,0,-5
COCC(C)n1c(SCC(=O)N2CCc3ccccc3C2)nc2ccccc2c1=O (centres undefined),-23%,-3,-6.2,6%[15.4 µM],-6,-7
O=C(Cn1cnc2ccccc2c1=O)NNC(=O)c1ccccc1,6%,-12,2.3,21%[15.4 µM],4,0
CC(C)[C@H](NS(=O)(=O)c1ccccc1)C(=O)OCC(=O)N1N=C(c2ccc(Cl)cc2)CC1c1ccco1 (some centres undefined),9%,7,-7.6,0%,-10,-6
COc1cccc(-c2nc(CS(=O)(=O)CC(=O)NCCCN3CC(C)CC(C)C3)c(C)o2)c1 (centres undefined),13%,-28,0.2,2%,-1,-21
CCCCNC(=O)c1sc(=S)n2c1[nH]c(=O)c1ccccc12,25µM*,-19,-7.1,19%,-23,-12
COc1ccc2[nH]c3c(c2c1)CCN1C(=O)C(CC(=O)NCC24CC5CC(CC(C5)C2)C4)C[C@H](C(=O)N(C(C)C)C(C)C)[C@@]31C (some centres undefined),-4%,3,-2.1,x,-14,-17

# Bioassay records deposited in PubChem BioAssay by National Center for Advancing Translational Sciences (NCATS).
